# FGF22 binding – shifts melting point of recombinant human FGF22; calls only at 9.99 µM; actives 1.5% (n = 340,000); Q9HCT0; recombinant FGF22 thermal shift, SYPRO orange fluorescence; percent of sucrose octasulfate shift, DMSO zero;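 active means melting point raised past a set limit in the mean and every replicate; inconclusive means no clear call; three in four hits are not shown here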
# Target sequence (Q9HCT0 whole entry, looked up): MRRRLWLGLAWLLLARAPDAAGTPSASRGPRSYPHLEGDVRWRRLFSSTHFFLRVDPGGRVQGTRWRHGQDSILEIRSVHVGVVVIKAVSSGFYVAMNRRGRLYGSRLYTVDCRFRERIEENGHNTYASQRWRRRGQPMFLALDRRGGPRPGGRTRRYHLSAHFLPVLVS
# UCH37 inh – blocks the human deubiquitinase UCH37. Q9Y5K5. purified proteasome/UCH37, Ub-AMC cleavage fluorescence. inhibition, % (concentration not given with the values). actives 0.33% (n = 330,000);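 active means mean of two replicates above 20%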;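 further: 0% = compound-free wells with enzyme and 100% = wells lacking proteasome; stock transfer was 100 nL into about 20 µL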
# Target sequence (Q9Y5K5 whole entry, looked up): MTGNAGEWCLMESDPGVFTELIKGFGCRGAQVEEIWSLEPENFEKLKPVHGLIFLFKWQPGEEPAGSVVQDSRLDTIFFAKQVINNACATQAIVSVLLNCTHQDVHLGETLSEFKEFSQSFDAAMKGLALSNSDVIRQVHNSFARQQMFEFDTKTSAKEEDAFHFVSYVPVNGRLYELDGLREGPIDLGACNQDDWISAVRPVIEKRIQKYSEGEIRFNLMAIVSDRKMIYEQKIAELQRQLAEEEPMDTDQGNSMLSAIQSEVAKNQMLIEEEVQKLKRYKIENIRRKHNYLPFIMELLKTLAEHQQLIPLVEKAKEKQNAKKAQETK
#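 assay system = human UCH37 enzyme supplied as purified proteasome complex | amount = proteasome at 0.15 nM in the dispensed enzyme solution | schedule = 30 min compound-proteasome preincubation then 25 min substrate reaction, room temperature | measured by = fluorescence, ex 355 nm, em 460 nm | benchmarks = no-proteasome wells (full inhibition) and compound-free wells (no inhibition)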
# Vif A3G – inhibitors of Vif binding to APOBEC3G peptide, primary screen, biochemical, TR-FRET, GST-Vif 1-94, biotin-A3G peptide, dose response retest (AID 1117319); TR-FRET GST-Vif / biotin-A3G peptide binding; higher % means a stronger effect; test concentration not given here; strong numbers were not always called active; inhibition, %, or IC50 in µM where a hit was titrated; actives 0.57% (n = 260,000);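 active means above the screen mean plus three standard deviations and confirmed in dose response; inconclusive means results disagree or hit not tested in dose response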;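 further: Vif residues 1-94 fused to GST binding biotinylated APOBEC3G peptide 110-148; 0% = full assay without inhibitor and 100% = GST in place of GST-Vif; retest series ran down from 100 µM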
# RanGTP-Imp inh – disruptors of Ran-importin-beta complex formation – biochemical, FRET, CFP-Ran, YFP-importin-beta, homogeneous, primary screen. cell-free CFP-Ran/YFP-importin-beta FRET ratio. inhibition, % (test concentration not listed). actives 1.1% (n = 300,000);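 active means most replicates above 15%; inconclusive means exactly half above 15%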;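 further: 0% = DMSO wells and 100% = Ran loaded with GDP instead of GTP; wells of about 40 µL received 100 nL stock; the first replicate is given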
# MLL AF4-AF9 inh – blocks AF4 peptide binding to human AF9 | P42568 | AlphaScreen, biotin-AF4 peptide binding to FLAG-AF9 | inhibition, % at 10 µM | actives 0.47% (n = 350,000) | AID 651704;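 active means every replicate reaching a set inhibition limit, whatever the replicate mean, cut at about 25% in these data; inconclusive means mean inhibition reaches that limit but some replicates miss it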;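 further: 0% = plate neutral control median and 100% = total signal loss; the record names both 10 and 1 µM as test concentration; the first replicate is given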
# Target sequence (P42568 whole entry, looked up): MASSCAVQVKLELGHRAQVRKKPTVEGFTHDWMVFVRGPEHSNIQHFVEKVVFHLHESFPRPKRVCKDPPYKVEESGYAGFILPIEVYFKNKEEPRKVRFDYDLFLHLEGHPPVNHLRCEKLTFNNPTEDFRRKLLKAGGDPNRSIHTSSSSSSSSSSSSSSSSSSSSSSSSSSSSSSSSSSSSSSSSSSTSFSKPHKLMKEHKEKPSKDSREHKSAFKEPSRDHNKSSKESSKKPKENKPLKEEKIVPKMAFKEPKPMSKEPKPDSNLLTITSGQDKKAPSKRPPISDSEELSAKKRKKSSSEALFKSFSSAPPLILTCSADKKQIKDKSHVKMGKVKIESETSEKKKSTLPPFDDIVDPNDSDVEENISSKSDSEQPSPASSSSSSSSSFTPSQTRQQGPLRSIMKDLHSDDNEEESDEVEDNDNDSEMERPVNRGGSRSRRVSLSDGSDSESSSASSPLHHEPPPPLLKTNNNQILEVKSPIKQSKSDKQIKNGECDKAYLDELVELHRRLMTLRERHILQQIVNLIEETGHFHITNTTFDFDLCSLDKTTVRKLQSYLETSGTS
# Ecoli growth – inhibitors of Escherichia coli growth; OD600, 23 h; hits give low values; OD600 absorbance (concentration not given with the values); actives 0.21% (n = 330,000); AID 1053175;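 active means OD600 absorbance below the run mean of sample wells minus 3.6 SD, in any replicate, cut at about 0.56 in these data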;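 further: stock transfer was 300 nL into about 60 µL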
# HNF4A DNA FP – change in binding of human HNF4 alpha to DNA; AID 1224865; P41235; actives 0.3% (n = 360,000); HNF4a-FITC DNA binding, fluorescence polarization, 1 h; activity change, % at 10 µM; in the data active means activity change above about 30%, passing the limit was not always enough;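 further: controls were the assay level and a saturating level of protein; the project sought stronger binding though the title names inhibitors; some compounds called inactive have numbers as strong as hits; positive values seem to mean higher polarization but the record does not say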
# The depositor's hits bear a star; i = inactive; ? = inconclusive; . = no result given; & = joins results of further samples. This is a subset, so the mix of outcomes need not match the whole.
SMILES,FGF22 binding,UCH37 inh,Vif A3G,RanGTP-Imp inh,MLL AF4-AF9 inh,Ecoli growth,HNF4A DNA FP
CCN(CC)CCNC(=O)c1c(O)c2c([nH]c1=O)CCCC2,i,4.1,-1%,0.1,0.8,0.64,4.9
C[C@H]1COC(=O)[C@H](Cc2ccc(F)cc2)C/C=C\C[C@@H](CC(=O)NCCO)C(=O)N1,i,3.1,.,.,0.5,.,0.9
O=C(COC(=O)CCc1ccc(S(=O)(=O)N2CCOCC2)cc1)NCc1ccccc1Cl,i,3.9,6%,9.2,1.0,0.69,2.9
O=C(NCCCc1ccccc1)C1CCN(c2nnc(-n3cccc3)s2)CC1,i,3.7,-3%,?,-1.7,0.71,3.3
CCOC(=O)N1CCN(S(=O)(=O)c2ccc(OC)c(OC)c2)CC1,.,3.5,2%,2.5,.,0.69,0.6
Cn1c(SCC(=O)c2ccccc2)nnc1C1COc2ccccc2O1 (stereo unspecified),i,1.2,.,1.6,.,0.7,-1.9
Cc1ccc(Sc2c(C)nn(C(=O)C3CC3)c2C)cc1,.,2.0,.,0.6,.,0.66,0.9
CCOC(=O)C1(Cc2cccc(OC)c2)CCN(Cc2cnc(C)s2)CC1,i,1.1,3%,45*,-0.2,0.68,-2.3
CC(=O)N1CCc2cc(Br)cc(S(=O)(=O)N3CCN(C(=O)c4ccco4)CC3)c21,.,-0.8,30%,?,.,0.71,0.3
CCOC(=O)c1ccc(NC(=O)c2nc[nH]c2C(=O)N2CCC(C)CC2)cc1,i,-1.5,-3%,5.6,3.9,0.6,2.1
COc1cc(-c2cc(NC(C)=O)c3ncc(-c4cc(OC)c(OC)c(OC)c4)n3c2)cc(OC)c1OC,i,.,.,.,-1.3,.,1.5
CC(=O)N1CCC2(CC1)CC(=O)c1cc(OCC(=O)NCc3ccc(C)cc3)ccc1O2,.,i,?,-0.2,.,0.75,-1.7
O=C(O)c1cc(-c2cccc([N+](=O)[O-])c2)nc2ccccc12,i,6.6,-11%,5.4,-25,0.67,-9.3
Cc1cc(C(=O)NCc2ccc(F)cc2)n(-c2ccccc2)n1,i,0.9,-1%,8.8,-5.4,0.74,0.2
COc1ccc(N(C(=O)c2snc(C(N)=O)c2N)C(C(=O)NCc2ccccc2)c2ccc(O)cc2)cc1OC (stereo unspecified),i,-12,.,1.1,3.2,0.67,0.5
COc1ccc(OCCCC(=O)Nc2nccs2)cc1,i,2.7,.,8.7,1.2,0.67,-1.1
O=C(Cc1ccccc1)Nc1cccc(NC(=O)c2ccccc2)c1,i,3.1,.,0.3,-0.7,0.6,-2.3
O=C(CSc1nnc(CNc2ccc(F)cc2)o1)N1CCN(C(=O)c2ccco2)CC1,.,0.6,-1%,1.0,.,0.71,0.9
COc1cc(NC(=O)COc2cccc(C)c2C)ccc1NC(=O)c1ccco1,i,-162,.,1.2,-0.8,0.72,0.9
O=C1C=CN2CCCC2CC1 (stereo unspecified),i,1.1,.,.,-0.3,0.57,-0.1
Cc1ccc2c(=O)n3c(nc2c1)C(Cc1ccc(O)cc1)NC(=O)c1cc2ccccc2cc1-3 (stereo unspecified),i,.,.,.,0.6,.,2.9
O=C(NCc1ccc(N2CCCC2=O)cc1)Nc1cccc2ccccc12,.,-3.6,-1%,?,.,0.75,-0.1
CCOC(=O)N(NC(=O)C(O)(CC(C)C)CC(C)C)c1ccccc1,i,-1.0,14%,-0.8,-1.7,0.72,1.4
O=C(Cn1ncc2c3ccccc3n(Cc3ccccc3F)c2c1=O)NCCCN1CCCC1=O,i,-9.0,.,2.7,0.7,0.66,0.7

# An excerpt from above, reduced to MLL AF4-AF9 inh:
SMILES	MLL AF4-AF9 inh
Cc1cc(C(=O)NCc2ccc(F)cc2)n(-c2ccccc2)n1	-5.4
COc1ccc(N(C(=O)c2snc(C(N)=O)c2N)C(C(=O)NCc2ccccc2)c2ccc(O)cc2)cc1OC (stereo unspecified)	3.2

# Further compounds follow.
SMILES,FGF22 binding,UCH37 inh,Vif A3G,RanGTP-Imp inh,MLL AF4-AF9 inh,Ecoli growth,HNF4A DNA FP
COCc1cc(C)c2c(N)c(C#N)sc2n1,.,-159,1%,-0.3,.,0.71,1.3
CCCc1cc(=O)[nH]c(SCC(=O)c2[nH]c(C)c(C(=O)OCC)c2C)n1,.,1.5,1%,-1.3,.,0.66,-3.3
O=C(Nc1ccccn1)C1CCN(c2ncnc3c2nc2n3CCCCC2)CC1,i,0.7,.,5.0,2.0,0.69,-4.3
COc1ccc(OCCCC(=O)OCC(=O)Nc2ccc(Cl)cn2)cc1,i,0.8,-20%,-0.5,-1.2,0.73,3.4
CC1CCN(C(=O)C(NS(=O)(=O)c2cccc3nsnc23)C(C)C)CC1 (stereo unspecified),i,3.5,.,1.5,-1.8,0.65,2.6
CC(C)Nc1nnc(SCC(=O)c2c(N)n(Cc3ccccc3)c(=O)n(C)c2=O)s1,.,1.1,30%,-2.6,.,0.81,-1.4
O=C1CN(Cc2ccccc2)C(=NCc2ccco2)S1,.,2.8,12%,-5.9,.,0.68,-0.7
CC(C)(C)C1CCC(=NNC(=O)c2ccc(Br)o2)CC1 (stereo unspecified),.,0.1,10%,1.9,.,0.66,-2.4
CC(Sc1ccc(Cl)cc1)C(=O)NNC(=O)c1csc(N2CCOCC2)n1 (stereo unspecified),i,-1.3,.,5.6,-0.7,0.7,5.6
Cc1cc(OC(=O)c2cc(Cl)ccc2Cl)c([N+](=O)[O-])c(=O)[nH]1,i,6.9,.,-3.6,-3.7,0.71,0.4
Cc1nc(CC(=O)Nc2nc(-c3ccccc3)cs2)cs1,.,0.9,-4%,-7.3,.,0.7,0.9
O=C(CN1CCOCC1)N1CCc2ccccc2C(c2ccccc2)C1 (stereo unspecified),.,-6.6,11%,-0.4,.,0.74,-2.6
CCc1ccc(Oc2nnnn2-c2ccc(C(N)=O)cc2)cc1,i,0.3,-2%,-2.6,0.1,0.7,-1.9
CCOC(=O)C1(C)CCCCCN1C(=O)c1csnn1 (stereo unspecified),i,.,.,.,-0.3,.,-2.5
CCSc1nnc(NC(=O)Cn2cnc3ccccc3c2=O)s1,i,2.8,-6%,-0.6,-1.8,0.67,3.3
Cc1cc(C)n(/N=C/c2cccs2)c(=O)c1C#N,i,.,1%,?,0.8,.,1.7
O=C(CSc1nnc(C2CCCCC2)n1Cc1ccccc1)NCc1ccco1,.,1.4,>100µM*,-4.4,.,0.68,9.4
CCOC(=O)C1[C@H]2C(=O)N(C(C)c3ccc(OC)cc3)C[C@]23C=C[C@H]1O3 (stereo partly specified),.,-2.8,-1%,-3.0,.,0.72,-1.8
O=S(=O)(c1cccc(NC(=S)N2CCN(c3cccc(Cl)c3)CC2)c1)C(F)F,i,1.9,.,4.5,-0.1,0.65,-2.5
N/C(=N\c1nc(CSc2nnnn2-c2ccccc2)cc(=O)[nH]1)Nc1ccccc1,i,1.5,.,-1.2,-3.9,0.7,.
CC(C)C12CN(C(=O)c3ccccc3[N+](=O)[O-])CC(C(C)C)(CN(C(=O)c3ccccc3[N+](=O)[O-])C1)C2=O,i,0.3,3%,0.5,0.2,0.65,-2.5
O=C(NCC(=O)N(c1cccnc1)C(C(=O)NC1CCCC1)c1ccccc1F)c1ccco1 (stereo unspecified),.,1.8,.,2.6,.,0.64,-0.7
N#Cc1c(SCC(=O)O)nc(N2CCCCC2)c2c1CCCC2,.,3.8,-8%,0.4,.,0.7,-0.1
COc1ccccc1OCCC(=O)OCC(=O)Nc1ccc(S(=O)(=O)N2CCOCC2)cc1,.,2.0,25%,-5.1,0.7,0.72,1.2
CCN1CCN(c2ccc(NC(=O)c3ccc(Br)o3)cc2)CC1,i,8.1,.,-4.0,0.3,0.71,1.9
COc1cccc(C2=Nc3cccc4cccc(c34)N2)c1,i,-11,.,0.3,33*,0.66,0.5
O=C(O)C(Cc1ccccc1)n1cnnn1 (stereo unspecified),.,1.3,-2%,-0.4,.,0.69,-0.6
COc1ccccc1-c1cccc([C@@H]2C[C@H]3[C@H](CON3C)CN2C(C)=O)c1,i,.,7%,.,7.2,.,2.8
O=C(COC(=O)c1ccccc1NC(=O)c1ccco1)NC1CC1,i,2.9,.,0.3,-1.8,0.7,0.1
CS(=O)(=O)N(CCCC(=O)N1CCCCCC1)c1cccc(Cl)c1,i,5.8,.,4.2,1.7,0.69,0.7
CCn1c(=O)cc(N2CCC3(CC2)OCCO3)[nH]c1=O,i,0.4,>100µM*,24*,0.9,0.75,-0.8
CC(C)c1nc(CN2CCCCC2)cc(=O)[nH]1,i,2.1,1%,1.6,-11,0.66,4.5
O=C(NCc1ccccc1)c1ccc(NC(=O)C2CC2)cc1,i,.,.,.,-0.8,.,1.6
COC(=O)c1c(C)[nH]c(C=Nc2ccc(OC)cc2)c1C,i,3.9,-7%,-4.0,.,0.67,1.3
CC(NC(=O)/C=C/c1cnc2ccccc2n1)C12CC3CC(CC(C3)C1)C2 (stereo unspecified),i,3.3,-4%,1.2,-2.2,0.7,2.3
CC(=O)Nc1ccc(S(=O)(=O)NNC(=O)NC23CC4CC(CC(C4)C2)C3)cc1,i,2.3,.,4.3,-1.5,0.64,-2.0

# 3 records picked at random from the list so far, as already listed:
SMILES,FGF22 binding,UCH37 inh,Vif A3G,RanGTP-Imp inh,MLL AF4-AF9 inh,Ecoli growth,HNF4A DNA FP
CCOC(=O)N(NC(=O)C(O)(CC(C)C)CC(C)C)c1ccccc1,i,-1.0,14%,-0.8,-1.7,0.72,1.4
O=C1C=CN2CCCC2CC1 (stereo unspecified),i,1.1,.,.,-0.3,0.57,-0.1
O=C(NCC(=O)N(c1cccnc1)C(C(=O)NC1CCCC1)c1ccccc1F)c1ccco1 (stereo unspecified),.,1.8,.,2.6,.,0.64,-0.7

# Following part.
SMILES,FGF22 binding,UCH37 inh,Vif A3G,RanGTP-Imp inh,MLL AF4-AF9 inh,Ecoli growth,HNF4A DNA FP
Cc1ccc(C)c(C(=O)CSc2nnnn2C(C)C)c1,.,3.7,11%,-5.9,.,0.71,-2.3
COC(=O)c1ccc(C23CC4(C2)[C@H](CN(Cc2ccc(C(F)(F)F)cc2)[C@@H]4c2ccccc2)C3c2ccc(C(F)(F)F)cc2)cc1 (stereo partly specified),.,0.2,-7%,-2.2,.,.,.
CCC(C)n1[nH]c(=O)cc1N (stereo unspecified),i,7.9,-2%,1.4,-0.2,0.71,1.3
Cc1nn(C)c(C)c1NC(=O)CSc1nnc(C)n1-c1ccccc1,i,3.3,3%,-0.1,9.5,0.65,-0.4
COc1ccc(CC2C(=O)OC(C)(C)OC2=O)cc1,.,0.2,2%,11,.,0.75,0.5
COc1cc(C(=O)NNC(=S)NC(=O)c2ccccc2C)cc(OC)c1OC,.,6.8,27%,-4.5,.,0.74,-2.7
CC(C)Cn1c(SCC(=O)NC(=O)Nc2ccc3c(c2)OCCO3)nc2ccccc2c1=O,.,1.6,69%&-12%,-3.3,.,0.67,-1.6
O=C(Cn1cnc([N+](=O)[O-])n1)N/N=C/c1cccc(Cl)c1,i,.,?,1.7,-1.9,.,0.3
Cc1ccc(Cl)cc1N1CCN(C(=O)c2cccc3c(=O)c(C)c(-c4ccccc4)oc23)CC1,i,1.9,-2%,?,1.3,0.73,-1.0
O=C(/C=C/Nc1ccccc1O)c1ccco1,i,7.9,28%,-20,1.5,0.62,-0.8
CCCN1CCC(NC(=O)Nc2cccc3ccccc23)CC1,i,-1.5,?,3.0,-30,0.68,0.3
CCOC(=O)c1cccc(N2C(=O)c3ccccc3S2(=O)=O)c1,.,2.9,-3%,0.8,.,0.71,3.1
CC1(OC(=O)CCc2ccccc2)C(=O)C=C2C=C3CCCN3C=C2C1=O (stereo unspecified),i,7.6,.,-3.8,1.8,0.68,-14

# Source: PubChem
